T cruzi repl – blocks replication of Trypanosoma cruzi | inhibition, % (concentration not given with the values) | 300,000 tested, 1.4% active | T. cruzi beta-gal in NIH3T3, luminescence, 90 h | AID 1885;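 active = mean inhibition across valid replicates above about 55%, limit read from the data; inconclusive = mean below that limit but half or more replicates reach it; inactive = mean below it, under half of replicates reach it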;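 also: signal also drops with host cell toxicity which is not excluded here; 0% = plate median of DMSO wells and 100% = zero luminescence signal; higher percent means less beta-gal luminescence so fewer parasites; stock transfer was 50 nL into about 50 µL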
UCH37 DUB inh – blocks the human deubiquitinase UCH37; Q9Y5K5; purified proteasome/UCH37, Ub-AMC cleavage fluorescence; inhibition, % (no concentration beside the values); 330,000 tested, 0.33% active; AID 588478;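 active = mean of two replicates above 20%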;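 also: 0% = compound-free wells with enzyme and 100% = wells lacking proteasome; stock transfer was 100 nL into about 20 µL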
Target sequence (Q9Y5K5 whole entry, looked up): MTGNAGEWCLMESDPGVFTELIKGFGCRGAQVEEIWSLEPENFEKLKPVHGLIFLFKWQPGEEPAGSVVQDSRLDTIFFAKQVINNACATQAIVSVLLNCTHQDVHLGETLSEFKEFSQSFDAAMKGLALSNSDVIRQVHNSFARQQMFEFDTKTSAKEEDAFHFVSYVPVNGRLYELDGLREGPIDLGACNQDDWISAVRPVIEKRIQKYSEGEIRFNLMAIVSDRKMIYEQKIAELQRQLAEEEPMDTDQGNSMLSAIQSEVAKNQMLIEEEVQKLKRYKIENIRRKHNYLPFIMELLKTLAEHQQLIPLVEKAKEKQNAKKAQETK
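Material: Human UCH37 enzyme supplied as purified proteasome complex | Schedule: 30 min compound-proteasome preincubation then 25 min substrate reaction, room temperature | Detection: AMC fluorescence from Ub-AMC cleavage, excitation 355 nm, emission 460 nm | Benchmarks: Wells without proteasome as full block, compound-free enzyme plus substrate as uninhibited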
Ecoli growth – blocks Escherichia coli growth; AID 1053175; OD600, 23 h; hits give low values; OD600 absorbance (test concentration not listed); 330,000 tested, 0.21% active;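 active = OD600 absorbance below the run mean of sample wells minus 3.6 SD, in any replicate, cut at about 0.56 in these data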;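 also: stock transfer was 300 nL into about 60 µL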
Beta apoptosis – beta cell apoptosis inhibition; 300,000 tested, 0.8% active; protection from apoptosis, % (concentration not given with the values); INS-1E cytokine-induced death, ATP luminescence, 48 h; percent of positive-control rescue, neutral wells zero;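 active = all replicates at 75% or more, or half of them and the mean; inconclusive = half reach 75% but not the mean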;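 also: 0% = cytokine-treated negative control wells and 100% = positive control rescue; higher means more ATP so stronger rescue from cytokine killing; wells of about 40 µL received 100 nL stock; the first replicate is given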
AF4-AF9 inh – MLL-AF4/AF9 protein interaction inhibition; P42568; AlphaScreen, biotin-AF4 peptide binding to FLAG-AF9; inhibition, % at 10 µM; 350,000 tested, 0.47% active;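 active = every replicate reaching a set inhibition limit, whatever the replicate mean, cut at about 25% in these data; inconclusive = mean inhibition reaches that limit but some replicates miss it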;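 also: 0% = plate neutral control median and 100% = total signal loss; the record names both 10 and 1 µM as test concentration; the first replicate is given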
Target sequence (P42568 whole entry, looked up): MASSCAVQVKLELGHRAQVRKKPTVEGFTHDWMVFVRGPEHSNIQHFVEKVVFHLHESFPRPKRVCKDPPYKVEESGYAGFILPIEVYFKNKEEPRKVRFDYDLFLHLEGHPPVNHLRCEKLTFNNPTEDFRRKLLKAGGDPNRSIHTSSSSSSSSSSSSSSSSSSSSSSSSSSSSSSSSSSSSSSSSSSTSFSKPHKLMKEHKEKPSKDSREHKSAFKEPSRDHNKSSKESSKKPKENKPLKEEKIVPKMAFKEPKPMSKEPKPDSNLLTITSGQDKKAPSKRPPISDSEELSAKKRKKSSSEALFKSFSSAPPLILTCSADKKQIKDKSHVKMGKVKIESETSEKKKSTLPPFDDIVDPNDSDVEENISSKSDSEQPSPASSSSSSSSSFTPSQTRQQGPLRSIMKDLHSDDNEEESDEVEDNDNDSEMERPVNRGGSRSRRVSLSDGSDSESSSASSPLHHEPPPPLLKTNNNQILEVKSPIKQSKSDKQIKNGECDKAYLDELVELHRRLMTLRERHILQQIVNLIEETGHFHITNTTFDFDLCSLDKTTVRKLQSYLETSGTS
FGF22 binding – shifts melting point of recombinant human FGF22 | recombinant FGF22 thermal shift, SYPRO orange fluorescence; percent of sucrose octasulfate shift, DMSO zero | calls only at 9.99 µM | 340,000 tested, 1.5% active | AID 651658;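 active = melting point raised past a set limit in the mean and every replicate; inconclusive = no clear call; three in four hits are not shown here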
Target sequence (Q9HCT0 whole entry, looked up): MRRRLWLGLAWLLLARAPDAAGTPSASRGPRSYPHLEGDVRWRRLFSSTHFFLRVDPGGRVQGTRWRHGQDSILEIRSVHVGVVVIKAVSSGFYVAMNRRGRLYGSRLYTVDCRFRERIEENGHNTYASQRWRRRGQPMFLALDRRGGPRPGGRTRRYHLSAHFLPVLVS
Ecoli rRNA inh – inhibitors of bacterial rRNA selective over humanized ribosomes; GFP signal change (wild-type ribosome), % (concentration not given with the values); AID 720706; 350,000 tested, 1.6% active; E. coli WT GFP vs humanized-ribosome RFP mutants, fluorescence, 24 h; hits give low values; DMSO median 0, no signal -100;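 active = significant combined selectivity score with lowered wild-type GFP, culture density cut under 30%, mutant RFP and density less affected; inactive = any of these conditions unmet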; also: one replicate is shown; some compounds called inactive have numbers as strong as hits
Bfl-1 A1 inh – inhibitors of the anti-apoptotic protein A1, read as caspase activation | MEF A1-2A-BIM cells, Caspase-Glo 3/7 luminescence, 3 h; percent of clofoctol response, vehicle zero | 330,000 tested, 0.066% active | AID 2462 | caspase activation, % (no concentration beside the values);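 active = over half of replicate activation scores above 10%, or exactly half above 10 with the replicate mean above 10; inconclusive = replicate mean below 10 yet half the replicates above 10; inactive = over half of replicates below 10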;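 also: wells of about 30 µL received 50 nL stock; many hits fall short of the cut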
Ecoli rRNA inh OD600 – recorded beside Ecoli rRNA inh, whose call it bears; OD600 change, %; measured here: OD600 growth;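 optical density of the mix in the first replicate; 0 = DMSO median and -100 = no signal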
Ecoli rRNA inh RFP – also measured in Ecoli rRNA inh; calls as there; RFP signal change, %; measured here: RFP humanized mutant strains;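 first replicate; 0 = DMSO median and -100 = no signal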
An asterisk follows results filed as active; i = inactive; ? = inconclusive; / = no result given.

Each structure is followed by: T cruzi repl	UCH37 DUB inh	Ecoli growth	Beta apoptosis	AF4-AF9 inh	FGF22 binding	Ecoli rRNA inh	Ecoli rRNA inh OD600	Ecoli rRNA inh RFP	Bfl-1 A1 inh
CCNC(=O)Nc1cc(OC)c(OC)cc1C(=O)O
  6	-33	0.68	2	-1.1	i	12	5	-2.8	0.1
COc1ccccc1C(=O)NC(CCSC)C(=O)OCC(=O)N1CCN(S(=O)(=O)c2ccc(C)cc2)CC1 (centres undefined)
  /	1.9	0.7	/	?	i	-1	-15	1.9	/
O=C(O)/C(=N/NC(=O)c1ccc(Cl)cc1)c1ccccc1
  -2	/	/	-2	-2.5	i	8	1	0.7	-1.5
O=C(CCS(=O)(=O)c1cccs1)NC1CCCCCC1
  2	1.7	0.72	/	/	/	/	/	/	0.7
Cc1ccc(NC(=O)CS(=O)CC(=O)NCCCc2ccccc2)cc1Cl (centres undefined)
  -23	5.7	0.71	-5	/	/	/	/	/	0.6
CCCC(=O)NC(=S)Nc1ccc(C(C)=O)cc1
  -21	-0.6	0.7	/	5.7	i	12	5	-2.5	0.4
O=c1c2ccccc2ccc2ccccc12
  /	-3.3	0.67	-8	0.7	i	-3	-9	-0.1	0.4
Cc1ccc(/C=N/Nc2ccccn2)s1
  -1	/	/	3	9.6	i	1	-3	-3.2	-0.5
S=C(NCCc1ccccc1)Nc1ccc(Br)cn1
  34	3.0	0.65	-3	0.3	i	5	2	0.5	0.6
Cc1ccsc1C(=O)Nc1ccc(O)c(-c2nc3ccccc3s2)c1
  10	-0.3	0.79	-3	-0.6	i	2	11	-2.0	0.2
Cc1ccc(NC(=O)c2sc3ncn(CC(=O)N4CCOCC4)c(=O)c3c2C)c(Br)c1
  1	/	/	1	-0.5	i	-9	2	-7.7	1.7
CCOc1ccccc1OCCCC(=O)Nc1ccc(S(=O)(=O)Nc2cc(C)nc(C)n2)cc1
  /	5.0	0.67	/	-1.3	i	-3	-3	-1.2	/
Clc1ccccc1CNc1nc2ccccc2n2cnnc12
  8	-20	0.67	-1	-3.4	i	10	5	-1.9	0.2
CC(C)c1cccc(C2=CC(=O)C[C@H](c3ccc4c(c3)OCO4)C2)c1
  /	-5.3	0.76	2	3.6	i	-1	2	-6.0	0.4
COc1cc(OC)cc(C(=O)NNC(=O)CN2C(=O)NC(C)(c3ccc(C)cc3)C2=O)c1 (centres undefined)
  4	1.8	0.65	2	-3.1	i	3	9	-2.3	-0.4
COCCNC(=O)C1=C(N)C(C(=O)Nc2ccc(C)c(S(=O)(=O)N3CCCCC3)c2)SC1=Nc1ccc(C)cc1C (centres undefined)
  11	3.2	0.7	5	/	/	/	/	/	0.5
Cc1cc(NC(=O)C(C)SCC(=O)N(C)CC(=O)Nc2ccccc2C(F)(F)F)no1 (centres undefined)
  /	0.5	0.62	/	0.1	i	12	9	1.7	/
O=C(NCCc1ccccc1)c1ccc(Cl)c(S(=O)(=O)N2CCCC2)c1
  9	1.6	0.67	10	/	/	/	/	/	-1.7
CN(C)c1ccc(C(C#N)c2ccccc2)nn1 (centres undefined)
  3	-0.6	0.66	-7	-1.2	i	-1	3	0.2	0.8
CC(C(=O)NCc1ccc2c(c1)OCO2)N(c1ccccc1)S(C)(=O)=O (centres undefined)
  -9	3.6	0.69	-10	/	/	/	/	/	0.8

Next results:
Each structure is followed by: T cruzi repl	UCH37 DUB inh	Ecoli growth	Beta apoptosis	AF4-AF9 inh	FGF22 binding	Ecoli rRNA inh	Ecoli rRNA inh OD600	Ecoli rRNA inh RFP	Bfl-1 A1 inh
COC(=O)c1ccc(S(=O)(=O)N2CCOCC2)o1
  12	0.8	0.64	-1	-1.4	i	-1	-1	1.3	0.8
Cc1ccc(NC(=O)/C(C#N)=C/c2ccc(C)s2)c(C)c1
  1	1.1	0.75	1	/	/	/	/	/	-1.8
CC[n+]1ccc(C)c2cc(P(=O)(c3ccccc3)c3ccccc3)ccc21
  4	9.8	0.69	-1	17	i	-26	-3	34	0.3
CC(=O)Nc1nnc(COc2ccccc2)s1
  -8	1.5	0.68	-6	0.3	i	18	18	1.5	0.0
Cc1cc(C)c(NC(=O)CSc2nc3ncc(Br)cc3[nH]2)c(Cl)c1
  3	2.1	0.65	7	-1.6	i	8	8	2.4	1.1
O=C1c2ccccc2S(=O)(=O)c2cc(N3CCN(C(=O)c4ccccc4)CC3)ccc21
  2	-1.0	0.66	4	-1.5	i	3	7	4.8	1.4
COc1ccc(N2CC(C(=O)Nc3nnc(SCC(=O)N4CCCC4)s3)CC2=O)cc1 (centres undefined)
  4	4.0	0.71	-22	-0.9	i	4	7	-1.3	-0.6
O=C(/C=C/c1ccccc1[N+](=O)[O-])OCC(=O)N1CCCC1
  /	5.2	0.65	1	-1.7	i	/	/	/	-1.1
CS(=O)(=O)NCCn1ccc2ccccc21
  5	5.0	0.69	-7	1.3	i	10	12	0.8	0.4
COc1ccc(/C=C(\NC(=O)c2ccco2)C(=O)NC(Cc2ccccc2)C(=O)O)cc1 (centres undefined)
  3	3.4	0.66	-2	-5.2	i	7	8	0.5	-0.2
Cc1cnc(C(=O)Oc2cccc(Cl)c2Cl)cn1
  -11	1.4	0.67	-10	0.8	i	2	14	-1.1	0.2
CCOC(=O)c1c(C)n(CCNC(C)=O)c2ccc(OC)cc12
  -8	-0.4	0.69	-4	/	/	/	/	/	0.2
COc1ccc(NC2=CC(c3ccc(F)cc3)N(c3ccc(OC)cc3)C2=O)cc1 (centres undefined)
  16	-99	0.72	3	-5.2	i	6	13	4.1	1.4
COc1ccc(C(=O)N2CCN(C(=O)C3COc4ccccc4O3)CC2)cc1 (centres undefined)
  -23	-0.5	0.7	1	0.4	i	0	1	-1.5	-0.5
CCN(C(=O)COC(=O)CCS(=O)(=O)c1ccccc1)c1c(N)n(Cc2ccccc2)c(=O)[nH]c1=O
  /	-0.1	0.71	/	-6.8	i	14	8	-0.8	/
CCC1CCC(C(=O)NNC(=O)c2cc(-c3ccco3)[nH]n2)CC1 (centres undefined)
  -9	/	/	-12	-2.6	/	8	-1	1.9	0.9
CCN(CC(=O)Nc1ccc(N2CCOCC2)cc1)C(=O)c1ccc(C#N)cc1
  -1	-1.1	0.67	1	2.7	i	22	20	5.0	0.6
Nc1nc(C(F)(F)F)c(Br)c(=O)n1N
  -7	1.8	0.72	1	-2.1	i	11	6	2.8	0.5
Cc1cc(C)nc(NS(=O)(=O)c2ccc(NC(=O)c3ccc(N4C(=O)CCC4=O)cc3)cc2)n1
  -14	1.7	0.63	0	/	/	/	/	/	0.7
CC1=CC2CC1C1C(=O)N(c3ccc(S(=O)(=O)Nc4nc(C)cc(C)n4)cc3)C(=O)C21 (centres undefined)
  -6	3.8	0.69	-5	1.4	i	4	10	-1.4	0.4

(next part)
Each structure is followed by: T cruzi repl	UCH37 DUB inh	Ecoli growth	Beta apoptosis	AF4-AF9 inh	FGF22 binding	Ecoli rRNA inh	Ecoli rRNA inh OD600	Ecoli rRNA inh RFP	Bfl-1 A1 inh
CC1CCCC(C)N1CCNC(=O)Nc1ccc(Cl)cc1 (centres undefined)
  -7	2.5	0.66	-11	/	/	/	/	/	1.3
COc1cccc2cc(-c3ccnc(N)n3)oc12
  -7	/	/	-3	1.8	i	-32*	-17*	3.2*	-10
O=C(N1CCCCC1)C1(c2ccccc2)CCOCC1
  -4	2.5	0.72	-6	-2.2	/	/	/	/	0.2
CC(=O)N[C@@H](C)c1nc2ccccc2n1CCCN1CCN(c2nc(-c3ccc(C)cc3)cs2)CC1
  -14	5.8	/	0	6.0	i	5	-1	1.8	0.6
COc1ccc(N2CC(NC(=O)N3CCN(C(=O)c4ccco4)CC3)CC2=O)cc1OC (centres undefined)
  -5	1.1	0.63	/	-3.2	i	12	7	-1.7	-0.1
CC1(c2nnc(-c3ccncc3)o2)CC(c2ccc([N+](=O)[O-])cc2)=NO1 (centres undefined)
  -4	1.6	0.68	/	6.0	i	3	5	-5.3	/
Cc1ccc(S(=O)(=O)Nc2ccc(N(C)S(=O)(=O)c3ccc(C)cc3)cc2)cc1
  21	7.4	0.64	10	-0.5	i	-32	-42	-5.0	-0.9
O=C1/C(=C/c2cccnc2)Sc2ccccc21
  7	3.5	/	-1	/	/	/	/	/	-0.1
O=C(Nc1ccccc1C(=O)NCc1ccccc1)c1ccco1
  3	1.0	0.75	-5	/	/	/	/	/	-0.3
CC(C)(C)Cc1nc(-c2ccccn2)no1
  0	5.5	0.79	-6	/	/	/	/	/	-0.7
COC(=O)CN(c1cccc(C(C)=O)c1)S(C)(=O)=O
  -30	0.4	0.69	-5	-16	i	8	0	3.1	-0.2
CCCNC(=S)NC1CC2CCC(C1)N2Cc1ccccc1 (centres undefined)
  -23	1.4	0.72	-5	2.6	i	13	7	-3.7	-0.2
COc1ccccc1OCCNC(=O)Cc1ccc(S(=O)(=O)N2CCOCC2)s1
  0	1.0	0.67	-9	0.5	i	2	4	0.0	0.2
COC(=O)/C=C1/N/C(=N\c2nc(C)cc(C)n2)N(c2ccccc2)C1=O
  -20	3.2	0.65	3	/	/	/	/	/	0.5
O=C(Nc1cccc(-c2nc3cc(Cl)ccc3o2)c1)C1CCCO1 (centres undefined)
  12	3.4	0.61	-4	/	/	-21	-28	-2.4	-0.7
Cc1sc2nc(CN3CCCC3)nc(N3CCC(C(N)=O)CC3)c2c1C
  3	5.2	0.76	0	/	/	/	/	/	0.6
CC1CCCC(NC(=O)CSc2ncccc2C(=O)O)C1C (centres undefined)
  -17	-3.1	0.74	1	/	/	11	2	-0.3	0.2
O=C(NCc1cccs1)c1cccc(Nc2nc3ccc(Br)cc3[nH]2)c1
  -9	1.6	0.62	-3	-18	i	-54	-81	-24	1.2
O=C(CNC(=O)c1ccccc1)NCC(=O)OCC(=O)c1ccc([N+](=O)[O-])cc1
  -6	-0.6	0.68	-4	-9.4	i	24	13	3.2	-0.1
O=C(Cn1c(=O)[nH]c2ccsc2c1=O)N1CCN(c2ccc(F)cc2)CC1
  -12	2.2	0.66	-1	/	/	/	/	/	0.0

Additional records follow:
Each structure is followed by: T cruzi repl	UCH37 DUB inh	Ecoli growth	Beta apoptosis	AF4-AF9 inh	FGF22 binding	Ecoli rRNA inh	Ecoli rRNA inh OD600	Ecoli rRNA inh RFP	Bfl-1 A1 inh
CCOC(=O)C1=C(CC)Nc2ccccc2N=C1NC(=O)c1cccc(S(=O)(=O)N2CCOCC2)c1
  /	0.9	0.62	0	1.1	i	/	/	/	1.0
Cc1nnc(SCC(=O)Nc2ccc(S(=O)(=O)N3CCCC3)cc2)n1N
  -13	-0.4	0.72	-2	/	/	/	/	/	0.7
CC(C)(C)c1ccc(C(=O)NCCC(=O)Nc2ccc3c(c2)OCCO3)cc1
  /	2.1	0.68	/	-2.5	i	-3	5	-2.4	/
COc1ccc(N(CC(=O)Nc2cccc(C(=O)O)c2)S(=O)(=O)c2c(C)noc2C)cc1
  /	1.1	0.71	-3	/	/	/	/	/	0.6
COc1ccc(OC)c(C(=O)c2c(C)oc3cc(Br)c(O)c(CN(C)C)c23)c1
  7	8.2	0.68	0	7.4	i	/	/	/	0.5

Bioassay records (PubChem BioAssay)

Not all compounds are listed (hit frequency here may not be typical).
